# VCAM-1 augmentation – enhancers of VCAM-1 display on endothelial cells, imaging, high-content imaging, pooled HUVEC, TNFa stimulus (AID 457). calls only. Pooled HUVEC, TNFa-induced VCAM-1 immunofluorescence imaging; hits of this screen are not shown here. 10,000 tested, 0.2% active;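 active = a top-ranked rise in VCAM-1 staining upheld on image or statistical review; inactive = the rest, including candidates rejected on review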;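 note: compounds tested at 5 µM in the well; cells exposed to compound for 24 hours before fixing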
# VCAM-1 inhibition – inhibitors of TNFa-induced VCAM-1 surface display, cell-based, plate reader, pooled HUVEC, TNFa stimulus (AID 454); inhibition, % at 5 µM; 10,000 tested, 0.2% active; HUVEC TNFa-induced VCAM-1 surface immunofluorescence, plate reader; numbers were filed only for top-ranked candidate wells;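 active = compound among top-ranked inhibitors of TNF-induced VCAM-1 adhesion protein staining, with the hit upheld by image or statistical review; inactive = the rest, including hits rejected on review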;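 note: 0% = TNFa with vehicle and 100% = cells without TNFa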
# FPR binder – human FPR ligands by binding competition, primary screen, cell-based, FPRL1 counter-screen, flow cytometry. fMet-Leu-Phe receptor (Homo sapiens), P21462. FPR-expressing cells, fluorescent ligand binding. inhibition, %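 (tested at 6.7 µM)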. 24,000 tested, 0.74% active;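 note: 0% = buffer wells and 100% = receptor blocker peptide wells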
# Target sequence (P21462 whole entry, looked up): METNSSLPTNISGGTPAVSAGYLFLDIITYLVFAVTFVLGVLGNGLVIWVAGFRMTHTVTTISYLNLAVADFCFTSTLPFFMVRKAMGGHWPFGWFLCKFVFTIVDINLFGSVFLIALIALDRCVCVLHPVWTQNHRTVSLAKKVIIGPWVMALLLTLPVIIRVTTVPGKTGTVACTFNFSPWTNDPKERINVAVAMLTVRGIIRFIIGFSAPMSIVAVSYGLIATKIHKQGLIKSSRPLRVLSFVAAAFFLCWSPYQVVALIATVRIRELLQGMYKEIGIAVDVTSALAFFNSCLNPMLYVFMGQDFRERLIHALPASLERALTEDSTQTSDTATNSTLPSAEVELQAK
# FPRL1 ligand – human FPRL1 ligands by binding competition, primary screen, cell-based, FPR counter-screen, flow cytometry. FPRL1-expressing cells, fluorescent ligand binding inhibition. inhibition, %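 (tested at 6.7 µM)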. 24,000 tested, 0.3% active. AID 441, 2006;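 note: 0% = buffer alone and 100% = receptor blocker peptide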
# Target sequence (P25090 whole entry, looked up): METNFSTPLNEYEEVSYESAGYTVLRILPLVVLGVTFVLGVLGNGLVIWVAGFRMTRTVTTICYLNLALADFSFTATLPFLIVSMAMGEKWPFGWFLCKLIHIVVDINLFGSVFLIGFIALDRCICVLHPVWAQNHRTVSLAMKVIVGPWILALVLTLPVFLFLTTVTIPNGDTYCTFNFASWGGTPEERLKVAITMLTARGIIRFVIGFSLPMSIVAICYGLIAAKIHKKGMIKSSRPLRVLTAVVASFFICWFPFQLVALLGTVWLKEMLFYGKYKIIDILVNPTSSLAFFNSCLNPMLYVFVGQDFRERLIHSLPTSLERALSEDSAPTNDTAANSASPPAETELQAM
# VCAM-1 down imaging – inhibitors of TNFa-induced VCAM-1 surface display, imaging, high-content imaging, pooled HUVEC, TNFa stimulus (AID 456) | HUVEC TNFa-induced VCAM-1 surface expression, immunofluorescence imaging; numbers were filed only for top-ranked candidate wells | inhibition, % at 5 µM, or IC50 in µM where a hit was titrated | 10,000 tested, 0.2% active;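 active = top tenth filtered wells with inhibition above zero that passed visual or statistical confirmation; inactive = the rest, including hits rejected on review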;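 note: 0% = stimulated vehicle wells and 100% = unstimulated cells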
# * hit, by the source's call; i = inactive; · = no result given.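 Rule for the calls, unless noted: active = mean above 30%; inconclusive = self-fluorescent; inactive = the rest.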 Only part of the results is shown; the hit share may differ from the screen's.
# Under each structure: FPRL1 ligand, VCAM-1 down imaging, VCAM-1 inhibition, VCAM-1 augmentation, FPR binder
COC(=O)c1ccc2c(c1)NC1=C(C(=O)CC(C)(C)C1)C(c1ccncc1)N2 (configuration not stated)
  -4, ·, ·, ·, -4
COc1ccc(C2C(C(=O)N3CCC(C)CC3)c3ccccc3C(=O)N2C)cc1 (configuration not stated)
  -1, i, i, i, 1
Cc1cccc(N2CCN(c3cc(C)nc4nnnn34)CC2C)c1 (configuration not stated)
  6, ·, ·, ·, -7
Cc1c(NC(=O)CC(=O)Nc2c(C)n(C)n(-c3ccccc3)c2=O)c(=O)n(-c2ccccc2)n1C
  -1, ·, ·, ·, 2
Cc1cc(NC(=O)CCN2C(=O)C3C4C=CC(C4)C3C2=O)c2ccccc2n1 (configuration not stated)
  -4, ·, ·, ·, -2
Clc1cc(Cl)c2nc(N3CCCCC3)sc2c1
  -3, ·, ·, ·, -1
CCOC(=O)N1CCN(C(=O)c2ccc3c(=O)n(CCc4ccccc4)c(=O)[nH]c3c2)CC1
  1, i, i, i, 0
CCOC(=O)c1cnc(-n2nc(C)cc2C)nc1N1CC(C)OC(C)C1 (configuration not stated)
  2, i, i, i, -4
CCn1c(SCC(=O)N2CCCc3ccccc32)nnc1-c1cccs1
  22, i, i, i, 12
CCCCCn1c(CCNC(=O)CCC)nc2ccccc21
  -3, i, i, i, -1
Cc1ccc(NC(=O)CN(c2cc(C)cc(C)c2)S(=O)(=O)c2c(C)noc2C)nc1
  -6, ·, ·, ·, 0
COc1cccc(CNC(=O)C2CCN(S(=O)(=O)N3CCCC3)CC2)c1
  0, ·, ·, ·, -3
CCc1ccc(-c2nc(CN3CCC(C(=O)NCc4ccc(F)cc4)CC3)c(C)o2)cc1
  10, ·, ·, ·, 12
CCOc1cc(C(=O)N(C)c2ccccc2)cc(OCC)c1OCC
  1, i, i, i, 3
Cc1nnc(NC(=O)C2C3C=CC(O3)C2C(=O)O)s1 (configuration not stated)
  2, ·, ·, ·, 4
CCOC(=O)c1ccc(NC(=O)COc2ccc(-n3cnnn3)cc2)cc1
  5, i, i, i, 0
Cc1ccc(C2/C(=C(/O)c3ccccc3)C(=O)C(=O)N2CCN2CCOCC2)o1 (configuration not stated)
  0, ·, ·, ·, -5
O=C(CCCN1C(=O)c2ccccc2C1=O)Nc1ccc(Br)cn1
  7, ·, ·, ·, 6
CS(=O)(=O)N1CCC(C(=O)NCc2ccc(F)cc2Cl)CC1
  -4, ·, ·, ·, -2
CSc1ccc(S(=O)(=O)N2CCN(Cc3ccc4c(c3)OCO4)CC2)cc1
  5, ·, ·, ·, -3

# Compound profiles (already shown):
# `COc1cccc(CNC(=O)C2CCN(S(=O)(=O)N3CCCC3)CC2)c1` as listed: FPRL1 ligand: 0; VCAM-1 down imaging: ·; VCAM-1 inhibition: ·; VCAM-1 augmentation: ·; FPR binder: -3
# `Cc1ccc(C2/C(=C(/O)c3ccccc3)C(=O)C(=O)N2CCN2CCOCC2)o1` (configuration not stated) as listed: FPRL1 ligand: 0; VCAM-1 down imaging: ·; VCAM-1 inhibition: ·; VCAM-1 augmentation: ·; FPR binder: -5

# The list continues.
# Under each structure: FPRL1 ligand, VCAM-1 down imaging, VCAM-1 inhibition, VCAM-1 augmentation, FPR binder
COc1ccccc1C1/C(=C(/O)c2ccccc2)C(=O)C(=O)N1CC(C)O (configuration not stated)
  -3, ·, ·, ·, 42*
O=C(NCc1ccccn1)c1ccc(CS(=O)(=O)Cc2ccc(Cl)cc2)o1
  -2, ·, ·, ·, 3
COc1ccc(/C(O)=C2\C(=O)C(=O)N(Cc3ccco3)C2c2cc(OC)ccc2OC)cc1 (configuration not stated)
  -4, ·, ·, ·, -11
Cc1ccc(NC(=O)c2cc(-c3ccco3)on2)cc1C
  -6, ·, ·, ·, -3
CC1Cc2cc(/C(O)=C3/C(=O)C(=O)N(CCN4CCOCC4)C3c3cccc(O)c3)ccc2O1 (configuration not stated)
  14, i, i, i, 3
COc1ccc(NC(C)=O)cc1NC(=O)CN1CCN(S(=O)(=O)c2ccc(C(C)C)cc2)CC1
  0, ·, ·, ·, 0
Cc1ccc(-c2nc(NC(=O)CSc3nnc(C)s3)ns2)cc1
  0, ·, ·, ·, 8
Cc1cc(Nc2cccc(Cl)c2C)n2ncnc2n1
  -4, ·, ·, ·, -5
CCc1cccc(NC2c3ccccc3C(=O)N2c2ccc(C)cn2)c1 (configuration not stated)
  -3, ·, ·, ·, -8
COC(=O)c1ccccc1S(=O)(=O)N(CCCO)Cc1cc2c(C)ccc(C)c2[nH]c1=O
  0, i, i, i, -6
CCn1cc(C2=NOC(C(=O)Nc3c(C)nn(Cc4ccc(F)cc4)c3C)C2)c(C)n1 (configuration not stated)
  2, i, i, i, 0
COC(=O)c1cn(NC(=O)c2ccncc2)c(=O)c2ccccc12
  -1, ·, ·, ·, -1
COc1ccc(N2CCN(Cc3nc(-c4ccc(Cl)cc4Cl)no3)CC2)cc1
  -1, i, i, i, -1
CCN(CCCNC(=O)CCn1c(=O)[nH]c2ccccc2c1=O)c1ccccc1
  0, ·, ·, ·, 2
COC(=O)c1ccccc1NC(=O)Nc1cc(C)cc(C)n1
  4, i, i, i, -9
O=C(c1csc2c1CCCC2)N1CCN(c2ccccc2)CC1
  -13, ·, ·, ·, 3
CC(NC(=O)C1CCCN(S(=O)(=O)c2cnc[nH]2)C1)c1ccccc1 (configuration not stated)
  -1, ·, ·, ·, 0
Clc1cccc(Nc2c3c(nc4ncnn24)CCC3)c1
  3, i, i, i, 5
Cn1c(=O)cc(OCC(=O)Nc2ccccn2)c2ccccc21
  1, ·, ·, ·, 3
CCC(C)NC(=O)CN(c1ccc2c(c1)OCO2)S(=O)(=O)c1c(C)n[nH]c1C (configuration not stated)
  -2, ·, ·, ·, -2
O=C(NC1CCN(Cc2ccccc2)CC1)C1CCCN(c2nnc(-n3cccc3)s2)C1 (configuration not stated)
  -4, ·, ·, ·, -10
COc1cc(CO)cc(Br)c1OCC(=O)O
  5, ·, ·, ·, -5
O=C(CSc1nc2c(cnn2-c2ccc(F)cc2)c(=O)[nH]1)N1CCCc2ccccc21
  -13, ·, ·, ·, -23
CCOC(=O)CSc1nc2ccccc2c(=O)n1CCN1CCOCC1
  4, i, i, i, -2
CCOC(=O)C1CCCN(c2c(NCCc3ccc(S(N)(=O)=O)cc3)c(=O)c2=O)C1 (configuration not stated)
  0, ·, ·, ·, -2
CCN(CC)c1ccc(NC(=O)CSc2nc(C)cc(=O)[nH]2)cc1
  2, ·, ·, ·, -8
CCOC(=O)N1CCN(CC(=O)Nc2cc(C)nn2-c2nc3ccccc3s2)CC1
  -3, i, i, i, 10
Cc1cc(=O)oc2cc(NC(=O)CCCC(=O)O)ccc12
  2, ·, ·, ·, 2
C/C(Cl)=C/Cn1c(SCc2ccc(Cl)cc2)nc2c1c(=O)[nH]c(=O)n2C
  -1, i, i, i, -1
Cc1ccc(S(=O)(=O)NCCSc2nnnn2-c2ccc(C(N)=O)cc2)cc1
  -5, i, i, i, -8
C=CCn1c(SCC(=O)Nc2ccc(C(=O)OC(C)C)cc2)nnc1-c1cccs1
  -4, ·, ·, ·, 1
CC(C)CCNC(=O)[C@H](CC(C)C)NC(=O)[C@H]1O[C@@H]1C(=O)O
  -2, i, i, i, -3
O=C(NCC1CCCO1)NC1(C(F)(F)F)Oc2ccccc2O1 (configuration not stated)
  -5, ·, ·, ·, -7
O=C(c1ncn[nH]1)N1CCN(c2nc(-c3ccccc3)cs2)CC1
  -2, i, i, i, 7
Cn1c(=O)[nH]c(=O)c2c1nc(CN1CCN(c3ccc(F)cc3)CC1)n2CCN1CCOCC1
  0, ·, ·, ·, -3
CCOC(=O)CSc1nnc(CNC(=O)c2cccc(C)c2)n1-c1ccccc1OC
  3, ·, ·, ·, 2
CCOC(=O)C1CCCN(C(=O)Cn2sc3nc(C)cc(C)c3c2=O)C1 (configuration not stated)
  21, ·, ·, ·, 11
CCOC(=O)CSc1nnc(Cn2c(=O)sc3ccccc32)n1C
  1, i, i, i, -3
COc1ccc(OC)c(NC(=O)CSc2nnc(-c3ccco3)n2-c2ccccc2)c1
  -2, i, i, i, -3
Cc1nc2sc(C(c3ccccc3)N3CC(C)OC(C)C3)c(O)n2n1 (configuration not stated)
  -1, ·, ·, ·, -7
O=C(c1cnn2c(C(F)(F)F)cc(-c3ccco3)nc12)N1CCc2ccccc2C1
  1, i, i, i, -4
C=C(Cl)COc1ccc2c(C)cc(=O)oc2c1
  3, i, i, i, -2
C/C(=N\O)C(=O)NCc1ccccn1
  -1, i, i, i, -4
OC(CN1C2=NCCCN2c2ccccc21)c1ccc(Cl)cc1 (configuration not stated)
  -3, ·, ·, ·, -3
O=C(CCCCCN1C(=O)C2C3C=CC(C3)C2C1=O)Nc1nccs1 (configuration not stated)
  -2, ·, ·, ·, -1
COCCN1Cc2cccc(C(=O)Nc3ccc(S(=O)(=O)N4CCCCC4)cc3)c2C1=O
  6, ·, ·, ·, 2
COc1ccc(N2CCN(C(=O)CCCC3=NS(=O)(=O)c4ccccc4N3)CC2)cc1
  13, ·, ·, ·, 11
CCOC(=O)c1ccc(NC(=O)c2c(C)[nH]c(C(=O)OCC)c2C)cc1
  -4, ·, ·, ·, 11
COc1ccc(N(C(C)=O)C2C=CS(=O)(=O)C2)c(OC)c1 (configuration not stated)
  2, ·, ·, ·, 5
CCn1c(=O)cc(OCC(=O)N2CCc3ccccc32)c2ccccc21
  14, ·, ·, ·, 5

# Following part:
# Under each structure: FPRL1 ligand, VCAM-1 down imaging, VCAM-1 inhibition, VCAM-1 augmentation, FPR binder
CC1(C)CC(=O)C=C(NCCN2CCN(C(=O)Nc3ccccc3)CC2)C1
  4, i, i, i, -2
COc1ccc(S(=O)(=O)n2nc(-c3cc(OC)c(OC)c(OC)c3)cc2N)cc1OC
  -6, ·, ·, ·, 1
O=C(Nc1ccccc1C(F)(F)F)N1CCCC(O)C1 (configuration not stated)
  11, ·, ·, ·, 3
O=C(O)c1ccc(CSc2nc3ccccc3o2)cc1
  0, ·, ·, ·, 1
CCn1c(=O)cc(OCC(=O)NCC2CCCO2)c2ccccc21 (configuration not stated)
  9, ·, ·, ·, 0
CCOC(=O)n1c(=O)oc2cc(S(=O)(=O)N3CCCCC3)ccc21
  0, i, i, i, 4
O=C(C1CCCO1)N(c1cccc(Cl)c1)C1C=CS(=O)(=O)C1 (configuration not stated)
  4, ·, ·, ·, 3
COc1ccc(N2CCN(CCNC(=O)CCN3C(=O)COc4ccccc43)CC2)cc1
  -1, ·, ·, ·, -3
CCOC(=O)C1CCN(C(=O)c2ccc(Cl)c(Cl)c2)CC1
  16, i, i, i, -9
CN(Cc1ccccc1)C(=O)CNC(=O)Cn1cnc2ccccc2c1=O
  4, i, i, i, -7
O=C1CCc2cc(S(=O)(=O)N3CCN(Cc4ccc5c(c4)OCO5)CC3)ccc2N1
  5, ·, ·, ·, -1
O=C(c1ccc(Br)o1)N1CCN=C1SCc1cccc(F)c1
  8, ·, ·, ·, 2
COc1cc(OC)cc(-c2cc(NC(C)=O)n[nH]2)c1
  -1, ·, ·, ·, 0
CC(=O)c1cc2c(=O)c3cc(C)ccc3oc2nc1C
  -7, i, i, i, 4
COc1ccccc1NC(=O)C(C)NS(=O)(=O)c1ccc(F)cc1 (configuration not stated)
  -2, i, i, i, 1
CC(=O)c1c(NCCc2ccccc2)cc(C)oc1=O
  5, i, i, i, -5
CC1CN(C(=O)CSc2ncnc3sccc23)CC(C)O1 (configuration not stated)
  -5, i, i, i, 2
CCN(CC)CCCn1c(=S)[nH]c2ccc(Cl)cc2c1=O
  -1, ·, ·, ·, 4
CNC(=O)c1cc2c(=O)n3cccc(C)c3nc2n1C
  -6, ·, ·, ·, 2
O=C(Nc1ccc(CN2CCOCC2)cc1)c1cc2ccccc2oc1=O
  0, i, i, i, 1
CCCCN(CC)CCCNC(=O)CC1Nc2ccccc2NC1=O (configuration not stated)
  1, ·, ·, ·, -5
Cn1c(=O)cc(SCC(=O)N2CCN(C(=O)c3ccco3)CC2)c2ccccc21
  -2, ·, ·, ·, 1
O=C(CC1Sc2ncnn2C1=O)Nc1ccc(Br)cc1 (configuration not stated)
  0, ·, ·, ·, -2
S=C(c1cccs1)N1CCCC1
  7, i, i, i, 2
CCOC(=O)c1c(C)c(C(=O)NCc2cccs2)c(C)n1C
  -2, ·, ·, ·, -11
CCN(CC(=O)O)S(=O)(=O)c1cc(Cl)ccc1Cl
  0, i, i, i, 4
Cc1ccc(C2c3c(oc4ccccc4c3=O)C(=O)N2c2nnc(C(C)C)s2)o1 (configuration not stated)
  2, i, i, i, 5
CCOC(=O)C1CCN(C(=O)c2c(-c3c(Cl)cccc3Cl)noc2C)CC1
  3, i, i, i, 0

# Compound activity from PubChem.
